Compound activity as filed in PubChem BioAssay.
HSV augment = increases HSV replication in cells; actives 0.005% (n = 220,000); AID 1956; HSV replication augmentation in cells, fold increase; maximum fold increase;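 active = peak rise of 1.5-fold or more in the series; inconclusive = self-fluorescent or not available for retest; tested in PC3 cells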;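 note: first round at 10 µM; read as green reporter fluorescence; hits show the peak of a series up to 25 µM; 1 = signal of infected wells without compound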
RGS16-Gao = regulators of human RGS16-Galphao interaction; binding response (% of control), % at 10 µM; actives 0.38% (n = 220,000); AID 1441; bead-based flow cytometry RGS16-Galphao binding, fluorescence; actives lie on both sides;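 active = below 25% or above 175%, edge rows of some plates excepted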;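 note: Galphao activated by GDP with aluminum fluoride before binding; 100% = wells without compound and 0% = beads without RGS; some results beyond the cut were filed as inactive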
Target sequence (O15492 whole entry, looked up): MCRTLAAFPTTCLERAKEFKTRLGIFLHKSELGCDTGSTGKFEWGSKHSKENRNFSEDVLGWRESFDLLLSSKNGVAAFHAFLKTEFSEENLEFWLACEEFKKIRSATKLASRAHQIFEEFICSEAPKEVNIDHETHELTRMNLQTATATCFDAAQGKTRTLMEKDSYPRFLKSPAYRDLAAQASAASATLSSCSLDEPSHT
Target sequence (P09471 whole entry, looked up): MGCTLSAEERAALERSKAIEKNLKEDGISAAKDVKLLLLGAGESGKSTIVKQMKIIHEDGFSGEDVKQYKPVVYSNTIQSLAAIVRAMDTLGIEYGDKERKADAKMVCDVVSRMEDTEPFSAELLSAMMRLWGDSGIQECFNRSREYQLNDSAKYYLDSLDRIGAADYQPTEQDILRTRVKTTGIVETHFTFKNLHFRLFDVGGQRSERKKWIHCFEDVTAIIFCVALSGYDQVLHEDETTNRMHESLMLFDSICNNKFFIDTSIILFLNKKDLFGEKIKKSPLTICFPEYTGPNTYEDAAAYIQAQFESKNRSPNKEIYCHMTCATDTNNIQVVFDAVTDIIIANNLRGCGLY
Insulin prom inh = TRM-6 insulin promoter activity inhibition; actives 0.9% (n = 130,000); inhibition, % at 2 µM; TRM-6 cells (human fetal islet line), insulin promoter-eGFP reporter, imaging; reporter expression induced with tamoxifen;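 active = inhibition above the mean plus 3 SD, with well images judged a real hit on visual review, cut at about 60% in these data, passing the limit was not always enough; inconclusive = inhibition over the cutoff but images rejected on review; inactive = inhibition not above the cutoff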
PKD1 kinase inh = blocks activity of human protein kinase D1. PKD1 kinase fluorescence polarization assay. AID 797. actives 0.056% (n = 200,000). inhibition, %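 (about 10 µM by stock and volumes)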;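 active = inhibition of 50% or more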;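 note: controls were vehicle for no effect and a reference inhibitor for full effect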
GALR2 agonist = agonists of human galanin receptor 2 (GALR2). activation, %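 (tested at 5 µM)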. GALR2-expressing cells, agonist activation read-out. actives 0.48% (n = 140,000). O43603. AID 803;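 active = above mean plus 3 SD of all compounds, about 5% in these data, not always enough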;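 note: 0% = vehicle buffer wells and 100% = reference agonist at full effect; tested in CHO reporter cells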
Target sequence (O43603 whole entry, looked up): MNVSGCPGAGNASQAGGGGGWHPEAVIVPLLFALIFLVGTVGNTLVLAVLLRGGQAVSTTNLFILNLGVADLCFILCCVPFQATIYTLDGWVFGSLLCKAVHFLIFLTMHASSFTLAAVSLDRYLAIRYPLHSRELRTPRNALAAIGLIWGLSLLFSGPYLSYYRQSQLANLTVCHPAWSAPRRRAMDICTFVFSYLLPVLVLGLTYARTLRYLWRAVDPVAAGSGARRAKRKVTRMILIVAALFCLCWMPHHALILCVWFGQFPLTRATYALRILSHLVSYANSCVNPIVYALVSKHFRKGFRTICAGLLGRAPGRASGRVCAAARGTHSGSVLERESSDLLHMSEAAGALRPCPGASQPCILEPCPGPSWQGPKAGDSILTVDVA
Insulin prom inh cell count = also measured in Insulin prom inh; calls as there; normalized cell count, %; measured here: cell count, toxicity; reference of the scale not given here;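 cells exposed to compound for 48 h; stained nuclei by imaging scaled within each plate; lower means fewer cells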
HSV augment primary fold = second read-out of HSV augment, no call of its own (marks repeat the call); fold increase; compound at 10 µM; measured here: primary screen fold increase 10 uM; tested in PC3 cells;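 GFP signal in the first replicate; 1 = infected wells without compound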
Active calls of the source: *; i = inactive; ? = inconclusive; . = no result given.

SMILES	HSV augment	HSV augment primary fold	RGS16-Gao	Insulin prom inh	Insulin prom inh cell count	PKD1 kinase inh	GALR2 agonist
CCCCNC(=O)/C(C#N)=C/c1ccc(C(=O)OC)cc1	i	1	109	.	.	-8	.
CCCC(=O)Nc1ccc(Cl)c(NC(=O)c2ccc(Br)o2)c1	i	0.86	100	6	102	-7	-2.0
COc1cccc(N2C(=O)CC(N3CCC(c4nc5ccccc5[nH]4)CC3)C2=O)c1 (stereo not drawn)	i	0.99	124	73	96	0	-3.1
Cc1nnc(SC(C)C(=O)Nc2ccc3c(c2)OCCO3)s1 (stereo not drawn)	i	0.85	97	.	.	12	-1.7
COc1cccc(-c2cc(C(=O)N3CCN(c4ncccn4)CC3)c3ccccc3n2)c1	.	.	92	.	.	-1	-0.6
O=C(NCCCl)NNC(=O)c1cc2ccccc2cc1O	i	1.2	103	.	.	.	.
CCOc1ccc(C(=O)c2nc3c(n2O)CCCCC3)cc1	.	.	100	-125	99	-7	-1.0
COC(=O)c1nc(NC(=O)c2ccc(F)cc2)n[nH]1	i	0.91	110	.	.	5	.
Cc1cc(C)c(C(=O)CSc2nc3ccccc3c(=O)[nH]2)cc1C	i	0.9	107	-25	146	-3	.
O=C(NCC(=O)N(c1cccnc1)C(C(=O)NC1CCCCC1)c1cccnc1)c1ccco1 (stereo not drawn)	i	1	85	24	45	0	-0.5
Cc1cc(NC(=O)CCC(=O)N(c2cccc(F)c2)C(C(=O)NC2CCCC2)c2ccncc2)no1 (stereo not drawn)	i	0.91	105	-3	98	-26	-0.8
COC(=O)Nc1ccc(S(=O)(=O)N2CCC(C(=O)NC3CCCCC3)CC2)cc1	i	0.85	104	.	.	-2	.

Continued, overlapping the part above by 2 compounds.
SMILES	HSV augment	HSV augment primary fold	RGS16-Gao	Insulin prom inh	Insulin prom inh cell count	PKD1 kinase inh	GALR2 agonist
Cc1cc(NC(=O)CCC(=O)N(c2cccc(F)c2)C(C(=O)NC2CCCC2)c2ccncc2)no1 (stereo not drawn)	i	0.91	105	-3	98	-26	-0.8
COC(=O)Nc1ccc(S(=O)(=O)N2CCC(C(=O)NC3CCCCC3)CC2)cc1	i	0.85	104	.	.	-2	.
Cc1ccc(NC(=O)C2(c3ccccc3)CCOCC2)c([N+](=O)[O-])c1	i	1.1	121	-10	58	-7	-0.7
CCOc1ccc2nc(SCC(=O)Nc3ccc(S(=O)(=O)N4CCCC4)cc3)c(C)cc2c1	i	0.88	97	.	.	.	.
CCCCN(C)CCNC(=O)c1c[nH]c2ccc(S(=O)(=O)N(CC)CC)cc2c1=O	.	.	102	.	.	-7	-1.3
COc1ccccc1/C=C\C(=O)NCC(=O)N/N=C(\C)Cc1ccccc1	i	0.94	100	.	.	.	.
CC(=O)Nc1ccccc1OCCOc1ccc(Br)cc1	i	0.95	103	-50	189	4	.
C/C(=C\C(=O)c1ccc(Cl)cc1Cl)N(C)C	i	0.92	104	-80	100	3	.
COc1ccc(NC(=O)N2CCCc3cccc(C)c32)cc1	i	0.95	97	.	.	.	.
O=C1CCC(=O)N1CC1CC2CCC1C2 (stereo not drawn)	i	0.97	100	.	.	.	.
Cc1cccc(-c2nnc3sc(-c4ccccc4)nn23)c1	i	0.96	.	.	.	5	-0.2
COc1ccc(CCN(C)C(=O)CSc2nccn2C)cc1OC	i	0.97	89	-11	73	-15	-2.6
C1CCCCCC(NCCN2CCNCC2)CCCCC1	i	0.64	110	.	.	.	.
O=C(O)C1CCN(Cc2ccccn2)CC1	i	1.1	104	.	.	-6	.
C=CCn1c(Cc2csc(N)n2)nnc1SCC(=O)OCC	i	0.96	101	62	100	-3	-1.5
C(=N\NCc1ccccc1)/c1ccc2ncccc2c1	i	0.98	99	.	.	.	.
Cc1onc(-c2c(F)cccc2Cl)c1C(=O)Nc1nccs1	i	1	102	.	.	-9	.
CC(C)C1C(C#N)=C(N)Oc2n[nH]c(-c3ccc4ccccc4c3)c21 (stereo not drawn)	i	0.67	106	-10	59	-2	1.2
Cc1oc(-c2cccs2)nc1CS(=O)CC(=O)NCCc1ccccc1 (stereo not drawn)	i	1.1	101	.	.	-2	-1.6
O=C(Cc1ccccc1)NCC(=O)OC(c1ccccc1)c1ccccc1	i	0.99	98	.	.	-5	.
CCC(=O)NC(=S)Nc1ccc(NC(=S)NC(=O)c2ccccc2)cc1	i	1.1	105	29	132	8	.
CC(Nc1cc(N2CCNCC2)ccc1[N+](=O)[O-])c1ccccc1 (stereo not drawn)	i	0.71	109	-16	103	2	1.0
CCCCN(C)S(=O)(=O)c1ccc(C(=O)N(CCN(C)C)c2nc3ccc(C)cc3s2)cc1	i	0.88	101	22	72	2	.
CC1CCN(C2=C(NS(=O)(=O)c3ccc(Cl)cc3)C(=O)c3ccccc3C2=O)CC1	i	0.98	98	0	92	-1	0.7
OC(CNCCCCNCC(O)C(F)(F)F)C(F)(F)F (stereo not drawn)	i	0.87	98	-5	115	4	.
O=C(Nc1cccs1)NC1CCCC1	i	1	56	.	.	-1	0.2
CCC(=O)N=c1ccn(C2=Nc3ccccc3NC2=C(C#N)C#N)cc1	i	1.2	102	.	.	.	.
c1ccc2nc(N3CCN(Cc4ccc5c(c4)OCO5)CC3)cnc2c1	i	0.98	106	.	.	5	.
Cc1ccccc1NC(=O)Cn1cnc2c(oc3ccccc32)c1=O	i	1	101	25	92	-5	-1.2
CC(NC(=O)Cc1c(F)cccc1Cl)C1CCCO1 (stereo not drawn)	i	1.1	98	3	86	4	-1.1
COc1cccc(OC)c1C(=O)N1CCN(S(=O)(=O)c2ccc(C)cc2)CC1	i	0.66	102	-7	107	-1	-0.3
CCOCCCNC(=S)N1CCC(NC(=O)C23CC4CC(CC(C4)C2)C3)CC1	i	0.97	99	.	.	2	.
Cc1nn(-c2ccccc2)c(C)c1/C=C/C(=O)OC(C)C(=O)Nc1ncc(Cl)cc1Cl (stereo not drawn)	i	0.9	95	20	118	-7	-2.3
CS(=O)(=O)NCC(c1ccco1)N1CCN(c2ccc(F)cc2)CC1 (stereo not drawn)	i	0.9	98	.	.	-3	0.3
COc1cc(SC)ccc1C(=O)Nc1ccc2c(c1)OCO2	i	0.92	100	.	.	-7	.
COC(=O)c1ccccc1NC(=O)Cn1c(-c2nonc2N)nc2ccccc21	.	.	91	-205	8	-9	0.0
FC(F)(F)c1cccc(NC(=S)NCC2COc3ccccc3O2)c1 (stereo not drawn)	i	1.1	109	-3	91	-11	0.2
O=c1oc2cc([N+](=O)[O-])ccc2nc1/C=C(O)/C=C/c1ccccc1	i	0.95	97	.	.	.	.
O=C(CCC(=O)OCc1ccc([N+](=O)[O-])cc1)Nc1ccc(F)cc1	i	0.96	99	38	102	-7	.
CC(C)c1ccc(N2C=Nc3ccc(C(C)C)cc3C2)cc1	i	0.75	99	.	.	.	.
C=CCNC(=O)COC(=O)c1cc(S(=O)(=O)N2CCCCC2)ccc1Cl	i	1	103	.	.	8	.
COCCn1cnc2c1c(=O)n(CC(=O)OCC#N)c(=O)n2Cc1ccccc1	i	0.97	118	-42	42	-1	.
O=C(/C=C/c1ccco1)NCCCN1CCN(CCCNC(=O)/C=C/c2ccco2)CC1	i	0.97	112	-9	108	-8	0.8
C=CCSc1nnc(NC(=O)CSc2nc3ccccc3[nH]2)s1	i	1.1	95	.	.	-8	-2.6
COc1ccc(/C(C)=N/NC(=O)CCC(=O)Nc2ccc(Cl)cc2Cl)c(OC)c1	i	0.94	60	-17	95	-7	0.2
CCCC1(c2ccccc2)NC(=O)N(CCN2C(=O)c3ccccc3C2=O)C1=O (stereo not drawn)	i	1	91	-21	91	-11	-2.1
CCOc1cccc(/C=N/NC(=O)CC2C(=O)NN=C2C)c1O (stereo not drawn)	i	1	99	22	57	1	.
CN1CCN(c2ccc([N+](=O)[O-])c(Sc3nc4ccccc4[nH]3)c2)CC1	.	.	98	-28	63	-2	0.9
[O-]/C(=C(\C(=S)Nc1cccc2ccccc12)[n+]1cccc(CO)c1)c1ccc(Cl)s1	i	1.1	105	7	106	6	.
Brc1ccc(C2=CC(c3cccs3)n3ncnc3N2)cc1 (stereo not drawn)	?	.	94	-11	140	-5	-1.0

One compound at a time (already shown). Order of screens: HSV augment, HSV augment primary fold, RGS16-Gao, Insulin prom inh, Insulin prom inh cell count, PKD1 kinase inh, GALR2 agonist
Profile of `CCC(=O)N=c1ccn(C2=Nc3ccccc3NC2=C(C#N)C#N)cc1` = i, 1.2, 102, ., ., ., .
Profile of `O=c1oc2cc([N+](=O)[O-])ccc2nc1/C=C(O)/C=C/c1ccccc1` = i, 0.95, 97, ., ., ., .
Profile of `C=CCn1c(Cc2csc(N)n2)nnc1SCC(=O)OCC` = i, 0.96, 101, 62, 100, -3, -1.5
Profile of `CCOc1ccc(C(=O)c2nc3c(n2O)CCCCC3)cc1` = ., ., 100, -125, 99, -7, -1.0
Profile of `C(=N\NCc1ccccc1)/c1ccc2ncccc2c1` = i, 0.98, 99, ., ., ., .

Sorted by count of non-hydrogen atoms (low to high): some entries from above.
SMILES	HSV augment	HSV augment primary fold	RGS16-Gao	Insulin prom inh	Insulin prom inh cell count	PKD1 kinase inh	GALR2 agonist
C=CCSc1nnc(NC(=O)CSc2nc3ccccc3[nH]2)s1	i	1.1	95	.	.	-8	-2.6
O=C(CCC(=O)OCc1ccc([N+](=O)[O-])cc1)Nc1ccc(F)cc1	i	0.96	99	38	102	-7	.
CN1CCN(c2ccc([N+](=O)[O-])c(Sc3nc4ccccc4[nH]3)c2)CC1	.	.	98	-28	63	-2	0.9
CCCC1(c2ccccc2)NC(=O)N(CCN2C(=O)c3ccccc3C2=O)C1=O (stereo not drawn)	i	1	91	-21	91	-11	-2.1
[O-]/C(=C(\C(=S)Nc1cccc2ccccc12)[n+]1cccc(CO)c1)c1ccc(Cl)s1	i	1.1	105	7	106	6	.

Other entries follow:
SMILES	HSV augment	HSV augment primary fold	RGS16-Gao	Insulin prom inh	Insulin prom inh cell count	PKD1 kinase inh	GALR2 agonist
S=C1NCN(C2CCCCC2)CN1c1ccccc1	i	0.98	94	.	.	.	.
CC(=O)N(c1ccc(C)cc1)S(=O)(=O)c1ccc(Cl)cc1	i	1	105	.	.	14	.
COc1ccccc1OCC#CCn1ccnc1	i	0.87	97	.	.	1	.
Cc1ccc(-c2nc(C#N)c(NCCc3ccccn3)o2)cc1	i	1	101	.	.	-3	-0.2
c1ccc(CCc2nn3c(C4COc5ccccc5O4)nnc3s2)cc1 (stereo not drawn)	i	0.88	111	.	.	-17	-1.0
CN1CCc2c(n(CC(O)CN(CCO)CCO)c3ccccc23)C1=O (stereo not drawn)	i	1	116	.	.	0	.
COCCCn1c(SCc2nnc(-c3ccc(OC)c(OC)c3)o2)nnc1-c1ccncc1	i	1	102	38	93	2	-2.0
COc1ccc([C@@H]2[C@@H](C(=O)C(C)(C)C)N3N=Cc4ccccc4[C@@H]3C23C(=O)OC(C)(C)OC3=O)cc1OC	i	0.99	111	67	97	-2	-0.5
NS(=O)(=O)c1ccc(CCNC(=O)CNC(=O)C2CCCCC2)cc1	i	0.99	103	.	.	-10	-0.9
Cn1c(SCC(=O)N2CCCc3ccccc32)nnc1-c1ccco1	.	.	99	.	.	-6	-0.8
CC(C)n1c(NCc2nc3ccccc3n2C)nc2ccccc21	i	0.79	102	27	124	-7	-4.0
CN1CCCCCC1C(=O)N1CCC(N2CCC(C(=O)N3CCOCC3)CC2)CC1 (stereo not drawn)	i	1.1	94	.	.	-5	.
CCC1=NN(C(=O)c2ccc(C)cc2)C(O)(c2ccc(Br)cc2)C1 (stereo not drawn)	i	0.85	105	-106	122	-6	-1.6
CC(=O)Oc1ccc(C(=O)Nc2cccc(C(=O)c3cccc(NC(=O)c4ccc(OC(C)=O)cc4)c3)c2)cc1	i	0.62	75	.	.	7	-1.6
CCOc1ccc(/C=C/C(O)=C2/C(=O)N(C)C3(C)CC2c2ccccc2O3)cc1OC (stereo not drawn)	i	0.74	107	.	.	-8	.
COC(=O)c1sccc1NC(=O)CSc1cccc(Cl)c1Cl	.	.	97	9	48	-1	-0.3
Cc1ccc(NC(=O)Cc2noc3ccccc23)cc1	i	0.92	86	31	87	0	-2.5
CCOC(=O)N1CCN(C(=O)CSCC(=O)Nc2nc(-c3ccc(-c4ccccc4)cc3)cs2)CC1	i	0.68	85	.	.	-10	0.5
Cc1ccccc1CNS(=O)(=O)c1ccc2c(c1)OCCO2	?	.	.	-50	52	-4	-3.5
Cn1c(N2CCOCC2)nc(-c2ccccc2)c1-c1ccccc1	i	1.1	102	.	.	-8	0.9
Cc1cc(NC(=O)CSc2nnc(-c3ccco3)n2CC2CCCO2)no1 (stereo not drawn)	i	1.1	94	3	118	-8	0.2
